D2 PAM = Beta-Arrestin HTS for Positive Allosteric Modulators of the Human D2 Dopamine Receptor: Potentiators | AID 624464, 2012 | 360,000 tested, 0.23% active | potentiation, % (no concentration beside the values) | DiscoveRx D2 beta-arrestin cells, luminescence, 90 min; 100% = 57 uM dopamine signal; active = potentiation of 50% or more; inconclusive = 30% to 50%; inactive = 30% or less;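 also: compound concentration not given in the record; tested on top of an EC20 dose of dopamine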
Target sequence (P14416 whole entry, looked up): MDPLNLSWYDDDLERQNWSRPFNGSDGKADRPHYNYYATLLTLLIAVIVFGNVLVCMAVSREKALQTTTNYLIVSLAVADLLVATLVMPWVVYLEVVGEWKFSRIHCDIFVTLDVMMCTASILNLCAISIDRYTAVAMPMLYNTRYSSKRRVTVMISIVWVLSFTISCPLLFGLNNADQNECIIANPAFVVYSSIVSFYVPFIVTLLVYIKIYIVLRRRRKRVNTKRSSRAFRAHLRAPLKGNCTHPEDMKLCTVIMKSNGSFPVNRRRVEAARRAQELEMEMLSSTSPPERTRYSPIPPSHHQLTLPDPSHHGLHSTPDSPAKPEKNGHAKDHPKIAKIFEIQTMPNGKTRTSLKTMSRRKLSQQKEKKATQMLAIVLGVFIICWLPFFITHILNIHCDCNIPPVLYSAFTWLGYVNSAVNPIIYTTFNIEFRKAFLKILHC
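D2 cells co-treated with compound plus 50 nM dopamine (EC20) for 90 min at 37 deg C to detect potentiation. Beta-arrestin recruitment was read as enzyme-fragment luminescence after 1 h at ambient temperature. Full response was set by 57 uM dopamine.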
CtBP-E1A inh = qHTS Assay for Inhibitors of the CtBP/E1A Interaction; AlphaScreen GST-E1A/His-CtBP binding, 1536-well; hits give low values; control for the full effect not named in the record; AID 651724, 2012; 340,000 tested, 0.49% active; activity change, % (test concentration not listed); CtBP / adenovirus E1A interaction (AlphaScreen); in the data active means activity change below about -65%; inconclusive means about -30% to -65%; inactive means above about -30%; also: % is scaled to controls: 0 for no effect and ±100 for the full control effect; compound concentration not given in the record
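GST-E1A and His-tagged CtBP (125 nM each as 5X stock) were preincubated with pin-transferred compound for 2 h at 37 °C in the dark, then glutathione donor and nickel acceptor beads were added for 1 h before AlphaScreen reading.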
gsp agonist = qHTS for Agonist of gsp, the Etiologic Mutation Responsible for Fibrous Dysplasia/McCune-Albright Syndrome: qHTS | Potency, µM (doses to about 76.9 µM), for the others: top-dose activation (cAMP increase), actives largely listed as activators | 340,000 tested, 0.13% active | gsp mutant cells, cAMP HTRF, 30 min; control for the full effect not named in the record | AID 624287, 2012; active = well fitted activation curve with a large enough effect; inconclusive = small, poorly fitted or top-dose-only effect, or another doubt; inactive = no such curve, though single readings can be large or run the other way; cell line not stated here;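 also: phosphodiesterase inhibitor Ro 20-1724 added with compounds to block cAMP breakdown; potency is read from the fitted curve at half-maximal effect; nearly all actives have a fitted effect of over 60% in size; about a fifth of the inactives were tested at one dose only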
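Cells stably selected in G418 were plated at 2000/well, grown 16-24 hr, then given compounds in DMSO with the PDE inhibitor […] (300 uM solution added) for 30 min at 37C; cAMP was read by HTRF.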
Six1-Eya2 blk = qHTS Assay for Inhibitors of the Six1/Eya2 Interaction; Homeobox protein SIX1 (Homo sapiens) + Protein phosphatase EYA2 (Homo sapiens), …; AlphaScreen GST-Six1/His-Eya2 binding, biochemical; hits give low values; control for the full effect not named in the record; activity change, % (test concentration not listed); 360,000 tested, 0.56% active; AID 651725, 2012; in the data active = activity change below about -65%; inconclusive = about -30% to -65%; inactive = above about -30%; also: % is scaled to controls: 0 for no effect and ±100 for the full control effect; compound concentration not given in the record
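Compounds are tested against tagged Six1 and Eya2 proteins bridged by glutathione donor and nickel acceptor beads; after a one-hour incubation at 37 °C without light, AlphaScreen emission is recorded.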
gsp antag = qHTS for Antagonists of gsp, the Etiologic Mutation Responsible for Fibrous Dysplasia/McCune-Albright Syndrome: qHTS | gsp-mutant cells, cAMP HTRF, 30 min; control for the full effect not named in the record | Potency, µM (series often up to 76.9 µM), for the others: at the highest dose activity change, negative = inhibition, hits mostly inhibitors | 340,000 tested, 0.4% active; active = falling curve of any shape with a large fitted effect; inconclusive = falling curve, mostly with a smaller effect; inactive = flat or rising curve; cell line not stated here;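 also: intracellular cAMP measured with PDE inhibitor Ro 20-1724 present during compound exposure; potency is read from the fitted curve at half-maximal effect; % is scaled to controls: 0 for no effect and ±100 for the full control effect; nearly all actives have a fitted effect of over 65% in size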
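Measurement of cellular cAMP by homogeneous time-resolved fluorescence following a 30 min compound exposure at 37C. The PDE inhibitor […] was present throughout; the assay buffer was DPBS with 0.05% BSA and 0.005% Tween 20.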
D2 ag = Beta-Arrestin HTS for Positive Allosteric Modulators of the Human D2 Dopamine Receptor: Agonists; 360,000 tested, 0.084% active; activation, % (test concentration not listed); DiscoveRx PathHunter D2 beta-arrestin, luminescence, 90 min; 100% = 57 uM dopamine signal; in the data active = activation above about 40%; inconclusive = about 15% to 40%; inactive = below about 15%; also: compound concentration not given in the record; the text of the record calls up to 30% inactive
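DiscoveRx PathHunter D2 beta-arrestin cells (2,100/well) attached overnight, then compound-stimulated 90 min at 37 C in HBSS/10 mM HEPES/0.1% Tween-20 buffer; beta-galactosidase complementation read by luminescence after 1 h at ambient temperature. Dopamine 57 uM final (EC100) as control.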
Active calls of the source: *; ? = inconclusive; nt = no result given; [ ] = another dose, or the depositor's remark. This is a random part of the collection. About 1.4% of those tested had a hit in this group.

SMILES	D2 PAM	CtBP-E1A inh	gsp agonist	Six1-Eya2 blk	gsp antag	D2 ag
COc1ccc(/C=C(\C#N)C(=O)N2CCOCC2)cc1Br	-15.3	0.2	-19.0%	8.1	?	-2.1
COc1cc(/C=N/O)cc(Br)c1OCc1cccc(Cl)c1	18.8	9.3	16.9%	1.4	-11.3%	-2.4
CCn1cc([N+](=O)[O-])c(C(=O)N2N=C(c3cccc4ccccc34)CC2c2ccccc2O)n1 (stereo not given)	8.3	-20.3	14.3%	-20.0	28.2µM*	-1.8
O=C(Cn1ccc2ccccc2c1=O)NCCC(=O)Nc1ccc2c(c1)OCCO2	7.5	5.4	-14.6%	-2.5	0.6%	-0.5
Cc1ccc(OCCOC(=O)c2cc(S(=O)(=O)N3CCCCC3)ccc2N2CCOCC2)cc1	-8.7	-3.3	1.2%	-6.0	-20.9%	-1.0
O=C(CCN1C(=O)c2ccccc2S1(=O)=O)Nc1ccc(F)cc1F	-4.4	9.9	-2.2%	1.6	-20.0%	-3.3
CCOc1ccc2nc(-c3cc(NC(C)=O)ccc3O)sc2c1	-2.7	nt	?	-0.5	8.6%	-8.9
Cc1c(C(=O)Nc2nccs2)sc2nc(-c3cccs3)cc(C(F)(F)F)c12	-10.1	5.3	4.5%	0.2	-17.8%	-3.2
O=C(CCc1ccccc1)Nc1ccnn1C1CCN(Cc2ncc[nH]2)CC1	-11.5	-11.0	11.8%	-3.7	7.7%	-3.8
Cc1ccc(C)c(CN2CCC(CNC(=O)Nc3ccc(Cl)cc3)CC2)c1	-12.6	7.0	-12.6%	7.1	20.4%	-4.1
Cc1cc([N+](=O)[O-])nn1CC(=O)Nc1nc2ccccc2s1	-3.3	-8.8	?	0.7	-5.0%	-5.6
Clc1cccc(C2CCN(Cc3nc(CC4CC4)no3)C2)c1 (stereo not given)	-10.8	1.8	9.7%	2.5	-1.4%	0.1
Oc1c(Cl)cc(Cl)cc1C=Nc1ccc(Br)cc1	-17.8	5.6	-15.7%	-0.1	-2.3%	-4.7
Cc1cc(NC(=O)C(C)SCC(=O)OCc2ccc([N+](=O)[O-])cc2)no1 (stereo not given)	-11.5	0.2	-71.9%[inhibitor]	-1.8	-6.4%	-0.6
O=C(NNC(=O)c1cccs1)c1ccc(Br)o1	4.0	-1.5	3.6%	-5.7	-0.1%	-2.7
COc1ccccc1NC(=O)C(C)OC(=O)C1CCC(C(C)(C)C)CC1 (stereo not given)	-17.9	27.5	-49.8%[inhibitor]	27.2	-3.1%	-4.3
CCCC[N+](CC#Cc1ccccc1)(CCCC)CCCS(=O)(=O)[O-]	-2.6	-12.3	?	7.6	7.6%	2.5
COc1ccc(OCC(=O)NCCc2ccc(S(N)(=O)=O)cc2)cc1	-3.7	4.1	?	-1.9	0.7%	0.1
CCOC(=O)CSc1nc(C(C)C)nc2ccccc12	0.9	3.3	?	12.8	-27.6%	-0.2
ON1C2CCCCC2N(O)C1c1c(F)c(F)c(F)c(F)c1F (stereo not given)	-14.8	-1.6	0.1%	-2.8	9.7%	-2.7
CCOC(=O)c1cc(-c2ccccc2)sc1NC(=O)C(C)Sc1nnnn1C (stereo not given)	-2.7	-7.0	-30.4%[inhibitor]	-10.7	-6.5%	0.0
COc1ccc(NC(=O)CC(C)NCCCN2CCCC2=O)cc1 (stereo not given)	-0.7	5.9	2.0%	10.2	13.4%	-1.3
Cc1ccccc1NS(=O)(=O)c1ccc(C(=O)NCC(c2ccco2)N(C)C)cc1 (stereo not given)	-7.1	-0.2	-0.9%	0.7	-0.9%	-2.5
CC1(C)CC(=O)c2c(nc(SCC(=O)Nc3nsc(-c4ccccc4)n3)c(C#N)c2-c2ccccc2)C1	-1.2	5.2	?	7.2	-26.0%	-1.4
CCC(C)C1Nc2ccc(C(=O)NCc3ccc4c(c3)OCO4)cc2NC1=O (stereo not given)	-7.9	-0.2	21.1%	-10.0	-17.7%	-4.1
COc1ccc(N2C(=O)C(Cl)=C(Nc3ccccc3OC)C2=O)cc1	-7.2	-2.2	-18.3%	-23.8	?	-0.6
O=C(c1ccccc1F)N(Cc1ccccc1)C1CCS(=O)(=O)C1 (stereo not given)	5.9	-1.7	-41.5%	6.3	11.4%	-1.8
COc1cc(CN(CC(C)C)S(=O)(=O)c2ccccc2Br)cc(OC)c1	nt	15.5	nt	2.5	-26.1%	-0.9
O=C(Nc1ccc(F)cc1Cl)c1ccc2c(=O)n3c(nc2c1)CCC3	-10.0	?	4.3%	-23.2	-1.3%	-0.3
O=C(C[C@H]1C/C=C\CC[C@@H](Cc2ccc(F)cc2)C(=O)O[C@H](c2ccccc2)CNC1=O)N[C@H](CO)Cc1ccccc1	nt	1.6	nt	1.0	-11.5%	2.6
CCc1ccc(C(C)NC(=S)NCc2ccc(F)cc2)cc1 (stereo not given)	-16.8	1.0	-34.5%[inhibitor]	2.4	-8.6%	-4.2
Nc1c(-c2ccccc2)n[nH]c1-c1ccccc1	-0.9	-4.0	-7.9%	-1.5	0.9%	-2.5
CCOc1ccc2nc(C)cc(C(=O)O)c2c1	9.1	-1.5	-5.4%	4.4	-1.8%	0.6
O=C(Nc1cc(C(F)(F)F)ccc1N1CCOCC1)c1c(F)c(F)c(F)c(F)c1F	0.2	1.9	3.3%	10.7	7.8%	-0.7
COC(=O)c1ccccc1NC(=O)CN(C1CCCCC1)S(C)(=O)=O	-2.7	2.5	-1.6%	5.3	-13.5%	-1.5
O=C(CNC(=O)N1CC(=O)Nc2ccccc21)NCCc1ccc(Cl)cc1	-1.7	nt	25.0%	-0.5	4.4%	1.4
COc1ccc(C)cc1NC(=O)COC(=O)Cc1ccc(-c2ccccc2)cc1	-6.9	17.2	-37.9%[inhibitor]	10.0	-12.3%	1.2
COc1ccc(OC)c(S(=O)(=O)N2CCCC(C(=O)NCCc3ccccc3)C2)c1 (stereo not given)	5.4	-4.0	7.0%	0.9	-5.9%	-1.3
CCCN1CCN(CCCNC(=O)CCn2nc(-c3ccccc3)ccc2=O)CC1	-2.2	0.2	?	7.5	11.1%	-6.8
Cc1noc(C)c1COC(=O)C1COc2ccccc2O1 (stereo not given)	9.9	9.2	-16.2%	9.7	-0.9%	-0.3
Cc1ccc(CNS(=O)(=O)c2ccc3c(c2)CCN3C(=O)C2CCC2)cc1	-5.9	nt	2.5%	1.6	-0.5%	-3.2
COc1ccc(CCNC(=O)c2cc3c(F)cccc3s2)cc1OC	-5.0	-16.8	?	-14.5	-25.2%	1.2
Cc1cc(Cl)c(S(=O)(=O)NCc2cccnc2)cc1OCC(=O)NC1CCCCC1	-6.6	1.4	0.5%	-1.7	-19.6%	-2.5
Cc1cc(C)c(Cn2c3ccccc3c3cnn(CC(=O)NCc4ccccn4)c(=O)c32)c(C)c1	-3.7	-2.6	5.5%[15.4 µM]	15.9	?	-3.3
CCOc1ccc(N(CC(=O)NCCc2ccc(OC)cc2)S(C)(=O)=O)cc1	-18.5	nt	-24.5%	6.7	0.1%	-4.5
C[C@@H]1CN([C@H](C)CO)S(=O)(=O)c2ccc(Br)cc2O[C@H]1CN(C)S(C)(=O)=O	3.0	0.8	-48.0%[inhibitor]	0.5	nt	-4.3
CC(COc1ccccc1)OC(=O)Nc1ccccc1 (stereo not given)	-7.5	10.9	-2.4%[15.4 µM]	13.8	-11.7%	-1.0
O=C(CCN1CCN(Cc2ccccc2)CC1)NNC(=O)c1ccc(Cl)c(Cl)c1	-32.4	-3.8	-22.5%	-1.1	nt	-1.8
CC(=O)c1ccccc1N(C(=O)c1ccco1)C(C(=O)NC1CCCC1)c1ccc(C)cc1 (stereo not given)	-6.5	1.6	-14.7%	-0.2	-19.0%	0.6
CCOC(=O)N1CCN(C(=O)c2cc3c(s2)-c2c(C)cccc2OC3)CC1	1.2	23.3	?	15.5	-11.9%	0.6
Cc1cc(-c2ccccc2)nc(N/N=C/c2ccccc2F)n1	-3.2	-4.2	28.1%	-3.4	-10.7%	-4.3
COc1cccc(OCc2cc(C(=O)NCC3CCCCC3)no2)c1	-6.5	1.4	4.1%	4.5	-10.5%	-3.7
O=S(=O)(NCc1ccccn1)c1cc(C(F)(F)F)ccc1Cl	-6.0	4.2	9.2%	-0.5	-4.0%	0.4
O[C@@H]1CN(Cc2cccs2)[C@@H](c2ccc(Cl)cc2)C[C@H]1n1cc(-c2ccc(F)cc2)nn1	-4.5	2.2	?	4.7	nt	-9.3
CCc1cccc(CC)c1NC(=O)COC(=O)c1ccc2c(c1)S(=O)(=O)c1ccccc1C2=O	1.6	2.5	9.5%	1.9	-0.4%	4.0
COc1ccc(S(=O)(=O)N2CCNCC2)cc1	0.6	-16.7	-1.0%	5.2	3.5%	-3.8
COc1cccc(CNCCNC(=O)c2ccco2)c1OC	-9.4	7.0	29.3%	2.4	4.7%	-2.6
Cc1ccccc1C(=O)Nc1scc(-c2ccc(Br)cc2)c1C(=O)O	-6.1	-4.5	5.6%[15.4 µM]	-16.2	39.8µM*	-2.1
CCOc1ccccc1CNCCN1CCOCC1	-3.6	5.3	17.8%	1.6	5.6%	2.5
Cc1cc(NC(=O)c2sccc2C)n(-c2nc3ccccc3[nH]2)n1	4.7	nt	-1.4%[15.4 µM]	-9.8	-23.2%	6.6
COc1ccccc1CNC(=O)CCc1cn(C)c2ccccc12	-2.1	0.3	-13.8%	-4.3	-1.5%	-1.1

A second format for part of the listing above:
| Structure | D2 PAM | CtBP-E1A inh | gsp agonist | Six1-Eya2 blk | gsp antag | D2 ag |
| --- | --- | --- | --- | --- | --- | --- |
| Cc1ccc(CNS(=O)(=O)c2ccc3c(c2)CCN3C(=O)C2CCC2)cc1 | -5.9 | nt | 2.5% | 1.6 | -0.5% | -3.2 |
| COc1ccc(CCNC(=O)c2cc3c(F)cccc3s2)cc1OC | -5.0 | -16.8 | ? | -14.5 | -25.2% | 1.2 |
| Cc1cc(Cl)c(S(=O)(=O)NCc2cccnc2)cc1OCC(=O)NC1CCCCC1 | -6.6 | 1.4 | 0.5% | -1.7 | -19.6% | -2.5 |
| Cc1cc(C)c(Cn2c3ccccc3c3cnn(CC(=O)NCc4ccccn4)c(=O)c32)c(C)c1 | -3.7 | -2.6 | 5.5%[15.4 µM] | 15.9 | ? | -3.3 |

High-throughput results (PubChem BioAssay)
